# Screening data from PubChem.
# StopGo FLuc = lowers the firefly signal of an FMDV 2A StopGo reporter; HEK cells with a luciferase reporter of 2A StopGo recoding; Potency, µM (top dose mostly 57.5 µM), for the others: at the top dose signal change, negative = less light; 0.23% of 120,000 active; AID 1745856; active = well fitted falling curve with a large enough effect; inconclusive = small, poorly fitted or top-dose-only effect; inactive = no such curve, though single readings can be large or run the other way; note: nearly all actives have a fitted effect of over 60% in size; overnight with compound
# StopGo RLuc = FMDV 2A StopGo reporter, Renilla signal; Potency, µM (top dose mostly 57.5 µM), without a hit: top-dose signal change, negative = less light; HEK cells with a luciferase reporter of 2A StopGo recoding; AID 1745857; 0.32% of 120,000 active; active means well fitted falling curve with a large enough effect; inconclusive means small, poorly fitted or top-dose-only effect; inactive means no such curve, though single readings can be large or run the other way; note: nearly all actives have a fitted effect of over 55% in size; overnight with compound
# * hit, by the source's call; ? = inconclusive; [ ] = dose if it differs, or a comment. % is set by controls: 0 for no effect and ±100 for the full control effect; potency is the fitted concentration of half-maximal effect. An excerpt, so the mix of outcomes need not match the whole.
SMILES,StopGo FLuc,StopGo RLuc
Cc1ccc(S(=O)(=O)N2CCN(C(=O)CNc3ccc(C)cc3Br)CC2)cc1,-2%,-13%
CCOc1ccccc1O[C@H](c1ccccc1)[C@H]1CNCCO1,-11%[11.5 µM],-10%
Cc1cc2oc(=O)cc(CN3CCOC(C)C3)c2cc1Cl (stereo not given),7%,9%
CCOc1ccc(-n2c(-c3ccc(C)cc3)nc3c(cnn3-c3ccccc3)c2=O)cc1,-13%,-15%
CCCNC(=O)CSc1nc(C)nc2sc3c(c12)CCC3,7%,1%
Cc1cc(C)cc(NC(=O)N2CCC(N3CCCCC3)CC2)c1,-11%,-3%
CC(C)=C1CC[C@H](C)[C@](C)(COc2ccc3ccc(=O)oc3c2)[C@H]1CCC(=O)O,4%,0%
N#C/C(=C/c1ccc(OCc2ccc3ccccc3c2)cc1)c1nc2ccccc2[nH]1,13%,-28%
COc1ccc(N2CC(C(=O)OCC(=O)c3ccc(C)cc3)CC2=O)cc1 (stereo not given),-1%,-7%
Cc1ccc(S(=O)(=O)/C(C#N)=C\c2ccc(OCCC(C)C)cc2)cc1,15%,-3%
COc1cc(OC)cc(C(=O)NCc2ccc(-c3nc4ncccc4o3)cc2)c1,55%[activator],26%
COc1cccc(CNC(=O)CCNS(=O)(=O)c2cccc3nsnc23)c1,7%,5%
Cn1cc(S(=O)(=O)c2cccc(Cl)c2)c(=O)c2cc(F)c(N3CCN(c4ccc(F)cc4)CC3)cc21,-6%,-8%
O=C(Nc1ccc(-c2nc3ccccc3s2)c(O)c1)c1ccc(Br)cc1,-8%,-5%
Cc1ccc(CN2CCSc3ccc(C(=O)Nc4ccc(Cl)cc4)cc32)cc1,109%[activator],-8%
CC(C)COC(=O)c1nn(-c2ccccc2)c(=O)c2ccccc12,9%,11%
CCOC(=O)c1c(C)sc(-c2c(-c3cc(C)ccc3C)[nH]c3c2c(=O)[nH]c(=O)n3C)c1O,-11%,0%
Cc1ccc(C(=O)CSc2nc3cc(C(=O)NC4CCCC4)ccc3c(=O)n2CC2CCCO2)cc1 (stereo not given),-20%,-16%
O=C(CCc1ncc(-c2ccccc2F)o1)NCCCN1CCOCC1,64%[activator],-9%
Cc1cc(=O)n(CC(=O)Nc2ccc([N+](=O)[O-])cc2)c(-n2nc(C)cc2C)n1,-10%,-5%
CCOCCCNC(=O)Nc1ccc2nc(N3CCOCC3)cc(C)c2c1,11%,12%
COCCn1cnc2c1c(=O)n(CC(=O)Nc1ccc(C(N)=O)cc1)c(=O)n2Cc1ccccc1,-2%,-6%
C#CCN(CC=C)Cc1ccc(OC)cc1OC,-2%,-4%
Fc1cc(CSc2nncn2C2CC2)c2ncccc2c1,8%,34%[activator]
COc1ccc(N2CCN(C(CNC(=O)CC(C)C)c3ccc4c(c3)OCO4)CC2)cc1 (stereo not given),-9%,26%
CCOc1ccc2nc(Nc3nc(C)c(Cc4ccc(C)cc4)c(=O)[nH]3)nc(C)c2c1,4%,-2%
NC(=O)CNS(=O)(=O)c1ccc(C(=O)O)cc1,14%,3%
COc1ccc(CC(=O)NCc2nnc3ccccn23)cc1,40%[activator],-1%
Cc1ccc(N2CCN(c3ncnc4onc(-c5ccc(F)cc5)c34)CC2)c(C)c1,-10%,-3%
COc1ccc(OC)c(NC(=O)CSc2nc3ccccc3nc2N2CCCCC2)c1,-16%,65%[activator]
O=C(NCc1nc2ccccc2[nH]1)c1ccc2n[nH]nc2c1,21%,0%
COC(=O)CNC(=O)C12CC3CC(C)(CC(C)(C3)C1)C2,8%,19%
COc1cccc(C(=O)Nc2ccccc2-c2nc(-c3ccc(C)cc3)no2)c1,17%,-22%
CCOC(=O)c1c(NC(=O)N2CCN(CC)CC2)sc(C)c1C,-8%,-10%
O=C(CCCC(=O)OCC(=O)c1ccc(Br)cc1)OCC(=O)c1ccc(Br)cc1,24%,16%
Cc1ccc(C)c(N(C)C(=O)CCNC(=O)Cn2cnc3ccccc3c2=O)c1,-19%,28%
Cc1ccc(C(=O)COC(=O)CCCC(=O)Nc2cc(C(F)(F)F)ccc2Cl)cc1C,0%,-12%
COc1cc(C(=O)N2CC(=O)Nc3ccc(C)cc3C2c2ccccc2)cc(OC)c1OC (stereo not given),45%[activator],59%[activator]
CCN1CCSc2ccc(C(=O)NCc3cccc(F)c3)cc21,0%,95%[activator]
CN(C)C(=O)C1CC1c1ccc(Br)cc1 (stereo not given),22%,13%
C=CCc1c(O)ccc2oc(-c3ccccc3)cc(=O)c12,183%[activator],38%[activator]
Cc1cc(C2=NNC(=NC(C)C)SC2)c(C)n1C1CC1,33%[activator],-8%
CCOc1ccc(-n2c(=O)c3c4c(sc3n(Cc3cc(=O)n5cc(Cl)ccc5n3)c2=O)CCC4)cc1,-11%,-11%
COc1cccc(NC(=O)C(=O)NCCc2csc3nc(-c4ccccc4C)nn23)c1,-5%,-13%
Cc1ccc(CCNC(=O)c2cc3c(s2)CSC3)cc1,33%[activator],11%
Cc1[nH]c2ccccc2c1C(=O)CN1C(=O)CC2(CCCCC2)C1=O,14%,2%
N#Cc1nc(-c2ccco2)oc1N1CCN(CC(=O)N(c2ccccc2)C2CCS(=O)(=O)C2)CC1 (stereo not given),-9%,6%
NC(N)=N/N=C/C=C/c1ccccc1,18%,1%

# Copied from the list:
# For StopGo FLuc, N#Cc1nc(-c2ccco2)oc1N1CCN(CC(=O)N(c2ccccc2)C2CCS(=O)(=O)C2)CC1 (stereo not given) is listed with -9%
# For StopGo FLuc, NC(N)=N/N=C/C=C/c1ccccc1 is listed with 18%

# Next part
SMILES,StopGo FLuc,StopGo RLuc
O=C(Cn1c2ncccc2c(=O)n1-c1ccccc1)Nc1ccc(Cl)cc1C(F)(F)F,-15%,1%
CCN(C(=O)CCS(=O)(=O)c1cc2[nH]c(=O)c(=O)[nH]c2cc1C)c1ccccc1,-9%,-11%
CCOc1ccc(N2CC(c3nc(-c4cc(OC)c(OC)c(OC)c4)no3)CC2=O)cc1 (stereo not given),-21%,-17%
COc1cccc(N2CC(C(=O)NCCNC(=O)c3c[nH]c4ccccc34)CC2=O)c1 (stereo not given),-4%,-6%
CN1CCN(C(=O)CN2C(=O)c3cccnc3Oc3ccc(Cl)cc32)CC1,-9%,-10%
COc1cccc(NC(=O)c2cnc(SCC(=O)N3CCCc4ccccc43)n(C)c2=O)c1,-7%,-8%
O=S(=O)(c1ccc(Cl)cc1)c1nc(-c2ccccc2)oc1N1CCN(c2ccccc2)CC1,-10%,-12%
Cc1c(O)ccc2c(=O)c(-c3cnn(-c4ccccc4)c3)c(C(F)(F)F)oc12,-24%,-26%
COc1ccc(C(C)C)cc1S(=O)(=O)NCCc1c(C)[nH]c2ccc(C)cc12,-4%,359%[activator]
Cc1ccc(C(NC(=O)C2CCCCC2)c2ccccc2)cc1 (stereo not given),6%,22%
O=C(NCc1ccc2c(c1)OCO2)c1n[nH]nc1Nc1ccc(F)cc1,18%,-2%
CCOc1cc(C2CC(=O)Nc3cc4c(cc32)OCCO4)ccc1O (stereo not given),0%,-11%
COc1ccc(C(=O)C(C)(C)NO)cc1,12%,9%
Cc1ccc(-n2nnnc2C2(Nc3ccccc3C)CCCC2)cc1,28%,65%[activator]
Cc1ccccc1-c1cc(C(=O)Nc2nn[nH]n2)c2ccccc2n1,-2%,-3%
CCc1ccc(NC(=O)Cn2nnc(C(=O)NCCc3ccccc3)c2N)cc1,-4%,-12%
O=C(COc1ccc2c(=O)c(-c3ccccc3)coc2c1)Nc1nccs1,37%[activator],1%
CCOC(=O)c1ccccc1NC(=O)N1CCC(CN2CCOCC2)CC1,1%,8%
Cn1c(CCNC(=O)c2ccccc2F)nnc1SCC(=O)N1CCc2ccccc21,32%[activator],-7%
Oc1c(-c2ccccc2)nc2sc3c(c2c1-c1ccccc1)CCCC3,-4%,82%[activator]
O=C(O)CCN1CCNCC1,-2%,12%
O=C(c1ccc2ncsc2c1)N(Cc1ccccc1)C1CC1,-8%,86%[activator]
COc1cccc(NC(=O)C(=O)NCC(c2ccc3c(c2)OCO3)N2CCOCC2)c1 (stereo not given),129%[activator],-14%
Cc1ccc(CN2CCCN(CC(=O)N3CCCCC3C)S2(=O)=O)cc1 (stereo not given),1%,36%[activator]

# Grouped by structure: the entries above with fluorine
SMILES,StopGo FLuc,StopGo RLuc
Cn1cc(S(=O)(=O)c2cccc(Cl)c2)c(=O)c2cc(F)c(N3CCN(c4ccc(F)cc4)CC3)cc21,-6%,-8%
O=C(CCc1ncc(-c2ccccc2F)o1)NCCCN1CCOCC1,64%[activator],-9%
Fc1cc(CSc2nncn2C2CC2)c2ncccc2c1,8%,34%[activator]
Cc1ccc(N2CCN(c3ncnc4onc(-c5ccc(F)cc5)c34)CC2)c(C)c1,-10%,-3%
Cc1ccc(C(=O)COC(=O)CCCC(=O)Nc2cc(C(F)(F)F)ccc2Cl)cc1C,0%,-12%
CCN1CCSc2ccc(C(=O)NCc3cccc(F)c3)cc21,0%,95%[activator]
O=C(Cn1c2ncccc2c(=O)n1-c1ccccc1)Nc1ccc(Cl)cc1C(F)(F)F,-15%,1%
Cc1c(O)ccc2c(=O)c(-c3cnn(-c4ccccc4)c3)c(C(F)(F)F)oc12,-24%,-26%
O=C(NCc1ccc2c(c1)OCO2)c1n[nH]nc1Nc1ccc(F)cc1,18%,-2%
Cn1c(CCNC(=O)c2ccccc2F)nnc1SCC(=O)N1CCc2ccccc21,32%[activator],-7%

# Next part:
SMILES,StopGo FLuc,StopGo RLuc
COc1ccc(CNC(=O)c2cc(Nc3ccc(OC)cc3OC)nc3ccccc23)cc1,24%,13%
CC(=O)c1ccc(NC(=O)c2sc(-n3nc(C)c(CCC(C)C)c3C)nc2C)cc1,29%,-19%
Cc1ccnc(NC(=O)C2CCN(C(=O)C3CC3)CC2)c1,28%,1%
COc1ccc(Cl)c2sc(NC(=O)c3ccc(S(=O)(=O)N4CCOCC4)cc3)nc12,0%,1%
NC(=O)C1(N2CCCCC2)CCN(CCCN2c3ccccc3CCc3ccc(Cl)cc32)CC1,-20%,-17%
O=C(Nc1ccc(-c2nc3ccccc3o2)c(O)c1)c1cccc(F)c1,94%[activator],-7%
CCOc1ccc(-c2nc3ccc4ccccc4c3c3c2CCCC3)cc1,?,6%
CCC1CN(C(=O)Nc2cc(C)cc(C)c2)c2ccccc2O1 (stereo not given),-22%,-13%
Cc1ccc(NC2=NC(c3ccco3)n3c(nc(C)cc3=O)N2)cc1 (stereo not given),19%,-7%
Cc1ccccc1C(=O)Nc1ccc2oc(-c3ccccc3)cc(=O)c2c1,180%[activator],7%
COc1ccc2nc(N3CCN(C(=O)c4ccco4)CC3)sc2c1,11%,?
COc1cccc(NC(=O)C(Cc2ccc(OC)cc2OC)c2nn[nH]n2)c1 (stereo not given),-1%,-8%
CCCOC(=O)c1cccc(Nc2nc(CCC)cc(=O)[nH]2)c1,?,?
Cc1cccc(NC(=O)CCCn2nc(C)c3c(C)n(-c4ccccc4)nc3c2=O)c1C,-25%,26%
COc1ccc(COC(=O)C2=C(C)NC3=C(C(=O)CCC3)C2c2cccc(Cl)c2)cc1 (stereo not given),37%[activator],43%[activator]
O=c1c(Cl)c(N2CCN(Cc3nnc(-c4ccccc4)o3)CC2)cnn1-c1ccccc1,9%,-2%
Cc1oc2ccc(O)c(CN3CCCCCC3)c2c1C(=O)Nc1cccc(Cl)c1C,-5%,-10%
COc1cccc(NC(=O)Cn2nnc(C(=O)NCc3ccc4c(c3)OCO4)c2N)c1,-9%,-2%
C=CCSC1=N/C(=C\C=C\c2ccc(OC)cc2)C(=O)S1,0%,4%
CC(C)CN(CC(C)C)c1nc(-c2ccc(Cl)cc2)nc2ccccc12,5%,0%
Cc1ccc2c(=O)cc(C(=O)Nc3sc4c(c3C(=O)NCc3ccccc3)CCCC4)oc2c1C,-21%,-9%
CCNC(=O)c1c(NC(=O)Cc2coc3ccc(CC)cc23)sc2c1CCCC2,-15%,-4%
CCc1ccc2occ(CC(=O)Nc3nnc(SC)s3)c2c1,-15%,-13%
CCOc1ccc(-c2cc(C(=O)N3CCOCC3)c3ccccc3n2)cc1,194%[activator],89%[activator]
CCCNC(=O)CCc1c[nH]c2ccccc12,15%,-6%
CC1=C(C(=O)Nc2cccnc2)C(c2ccc(Cl)cc2)n2nc(-c3ccccc3)nc2N1 (stereo not given),-25%,3%
O=C(CSc1nc2ccccc2c(=O)n1-c1ccccc1)N1CCC1,9%,20%
CCn1c(C)c(C)c2cc(C(=O)NCCc3ccc(C)cc3)ccc21,-11%,-1%
COc1ccc(CNC(=O)c2sc3nc[nH]c(=O)c3c2C)cc1,-21%,-14%
CCN(CC)Cc1ccccc1CNC(=O)c1nn(C)c(=O)c2ccccc12,8%,0%
COc1ccc(CNC(=O)CN(c2ccc(OC)cc2)S(=O)(=O)c2c(C)[nH]c(=O)[nH]c2=O)cc1,-4%,-6%
Cc1cc(-c2ccc(C)c(S(=O)(=O)Nc3ccccc3F)c2)on1,19%,16%
NC(=O)c1nn(CC(=O)NCc2ccc(F)cc2)c(=O)c2ccccc12,4%,-6%
Cc1oc2ncnc(N3CCOCC3)c2c1C(=O)NCC1CCN(CCc2ccc(F)cc2)CC1,-5%,-11%
COc1ccc(-c2nn(-c3ccccc3)cc2C2=NN(S(C)(=O)=O)C(c3cccs3)C2)cc1 (stereo not given),25%,18%
O=C(COC(=O)c1ccc2c(=O)n3c(nc2c1)CCC3)NC(=O)NCc1ccccc1,-6%,-7%
O=C(NCc1ccc(Cl)cc1)C1CCCN(c2ncnc3onc(-c4ccc(F)cc4)c23)C1 (stereo not given),7%,2%
CN(Cc1ccccc1Cl)C(=O)c1ccc2c(c1)CCCN2S(C)(=O)=O,8%,76%[activator]
O=C(COC(=O)c1c[nH]c2ccccc12)NC(c1ccccc1)c1ccccc1,-19%,-8%
COC(=O)c1cc(-c2ccc(OC)c(OC)c2)nc2ccccc12,48%[activator],3%
O=C(Nc1ccc(Cl)cc1)C1CCCN(S(=O)(=O)c2ccc3[nH]c(=O)ccc3c2)C1 (stereo not given),-3%,-2%
